# Screening results: PubChem, Broad Institute
# Env fusion inh: inhibitors of HIV Env-mediated cell fusion. HeLa-JRFL Env/CEM21 cell fusion, luciferase. inhibition, % at 12.3 µM. 360,000 tested, 1.1% active;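 active means mean replicate inhibition score of at least 50 and every replicate individually at or above 50; inconclusive means only one of the two criteria met; inactive means mean below 50 and not all replicates reaching 50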;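 further: 0% = plate neutral controls and 100% = maraviroc near 300 nM; one replicate is shown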
# * marks the source's active call; other numbers are inactive results; ? = inconclusive; [ ] = dose if it differs, or a comment.
SMILES,Env fusion inh
CN(C)C(=O)c1ccc(-c2cccc(-c3nc(C(=O)NCc4ccccc4)cc4c3[C@H](CCO)N([S@@](=O)C(C)(C)C)C4)c2)cc1,3[16.7 µM]
COc1cccc(NC(=O)Nc2ccc3c(c2)C(=O)N(C)C[C@H](OC)[C@H](C)CN(C)[C@@H](C)CO3)c1,-6[16.7 µM]
CCCN1C[C@@H](C)[C@H](OC)CN(C)C(=O)c2cc(NC(=O)c3ccc4c(c3)OCO4)ccc2OC[C@H]1C,22[16.7 µM]
C[C@H]1CN([C@@H](C)CO)C(=O)c2ccccc2-c2ccccc2CO[C@H]1CN(C)Cc1cccc(F)c1,62*[16.7 µM]
COc1cccc(CNC(=O)C[C@H]2C=C[C@@H](NC(=O)C3CCC3)[C@H](CO)O2)c1,-22[16.7 µM]
C[C@@H]1CN([C@H](C)CO)C(=O)Cc2cc(NC(=O)Cc3cn(C)c4ccccc34)ccc2O[C@H]1CN(C)Cc1ccc(-c2ccccc2)cc1,-17[16.7 µM]
COc1ccc(NC(=O)Nc2ccc3c(c2)C(=O)N(C)C[C@@H](OC)[C@H](C)CN[C@H](C)CO3)cc1,11[16.7 µM]
COc1cccc(S(=O)(=O)N(C)C[C@H]2OCc3ccccc3-c3ccccc3C(=O)N([C@@H](C)CO)C[C@@H]2C)c1,20[16.7 µM]
C/C=C/C=C/C(=O)c1cc(C)c(OC(=O)CNC(=O)OC(C)(C)C)c(C)c1O,?
COc1ccc2c3c(n(C)c2c1)[C@H](CO)N(C(=O)Nc1ccccc1F)CC31CCN(C(C)=O)CC1,-23[16.7 µM]
C[C@@H]1CCCCO[C@H](CN(C)C(=O)c2ccccc2)[C@H](C)CN([C@H](C)CO)C(=O)c2cc(NS(C)(=O)=O)ccc2O1,-5[16.7 µM]
CCCC(=O)Nc1ccc2c(c1)C(=O)N(C)C[C@H](OC)[C@@H](C)CN(C(=O)c1ccccn1)[C@H](C)CO2,-5[16.7 µM]
CC=Cc1ccc2n(c1=O)C[C@@H]1[C@@H](CO)[C@H](C(=O)NCCC)[C@H]2N1CC1CCCC1 (mixture of isomers),1[16.7 µM]
COc1ccc(NC(=O)Nc2ccc3c(c2)[C@H]2C[C@@H](CC(=O)O)O[C@@H](CO)[C@H]2O3)cc1,13[16.7 µM]
O=C1c2ccccc2C(c2nnnn2-c2ccc3c(c2)OCCO3)N1CCOc1ccccc1 (stereo not drawn),-30
CO[C@H]1CN(C)C(=O)c2cc(NC(C)=O)ccc2OC[C@H](C)N(S(C)(=O)=O)C[C@H]1C,7[16.7 µM]
CCCC(=O)Nc1ccc2c(c1)C(=O)N(C)C[C@@H](OC)[C@@H](C)CN(CC1CCCC1)[C@H](C)CO2,0[16.7 µM]
O=C(Cc1ccccn1)N[C@H]1CC[C@H](CCn2cc(-c3ccccc3)nn2)O[C@H]1CO,-13[16.7 µM]
CO[C@H]1CC[C@H]2CCN(C)C(=O)C[C@@H](c3ccccc3)CN(C)C(=O)c3cc(C#N)ccc3OC[C@H]1O2,-5[16.7 µM]
Cc1ccccc1C(=O)N[C@H](C(=O)N1CCC[C@H]1C(=O)NCCc1ccccc1Cl)c1ccccc1,25
CCCC(=O)Nc1ccc2c(c1)OC[C@@H](C)N(Cc1ccccc1OC)C[C@@H](C)[C@H](OC)CN(C)C2=O,-3[16.7 µM]
CCCC#Cc1ccc2c(c1)O[C@H](CN(C)C(=O)Nc1ccccc1F)[C@@H](C)CN([C@H](C)CO)S2(=O)=O,-26[16.7 µM]
CN1CCN(C(=O)C[C@@H]2CC[C@H]3[C@@H](COC[C@@H](O)CN3C(=O)Nc3ccc(F)cc3)O2)CC1,-18[16.7 µM]
C[C@H]1CN([C@@H](C)CO)C(=O)CCCn2cc(nn2)CO[C@@H]1CN(C)Cc1ccc(-c2ccccc2)cc1,-3[16.7 µM]
CO[C@@H]1CN(C)C(=O)c2ccc(NC(C)=O)cc2OC[C@H](C)N(C(=O)Cc2ccccn2)C[C@H]1C,40[16.7 µM]
Cc1noc(C)c1NC(=O)N(C)C[C@@H]1OCCCC[C@@H](C)Oc2ccc(N(C)C)cc2C(=O)N([C@@H](C)CO)C[C@H]1C,-1[16.7 µM]
CN(C)CC(=O)Nc1ccc2c(c1)[C@@H]1C[C@H](CC(=O)N3CCc4ccccc4C3)O[C@H](CO)[C@@H]1O2,-4[16.7 µM]
CCC(=O)N1[C@H](C(=O)NCCCN(C)C)[C@@H](CO)[C@@H]2Cn3c(ccc(-c4ccccc4OC)c3=O)[C@@H]21,6[16.7 µM]
COc1ccccc1S(=O)(=O)N[C@@H]1CC[C@H](CC(=O)NCc2cccc(F)c2)O[C@H]1CO,-11[16.7 µM]
COC(=O)C1=C(C)N(Cc2ccc(C(F)(F)F)cc2)C(=NCc2ccc3c(c2)OCO3)NC1c1ccccc1C(F)(F)F (stereo not drawn),-110
C[C@H](CO)N1C[C@H](C)[C@@H](CN(C)C(=O)Nc2ccc(F)cc2)Oc2cc(-c3ccc(F)cc3)ccc2S1(=O)=O,13[16.7 µM]
Cc1noc(C)c1NC(=O)Nc1cccc2c1O[C@H](CN(C)Cc1ccncc1)[C@H](C)CN([C@H](C)CO)C2=O,-16[16.7 µM]
C[C@H](CO)N1C[C@H](C)[C@H](CN(C)C(=O)CCN(C)C)OCc2ccccc2-c2c(n(C)c3ccccc23)C1=O,47[16.7 µM]
CCOc1cc(N2CCC(O)CC2)ccc1Nc1ncc2c(n1)N(C)c1ccccc1C(=O)N2C,18
CCCN(C)C[C@H]1OCCCC[C@H](C)Oc2ccc(NS(=O)(=O)c3cn(C)cn3)cc2C(=O)N([C@H](C)CO)C[C@H]1C,-19[16.7 µM]
O=C(C[C@@H]1C[C@H]2c3cc(NC(=O)c4cccnc4)ccc3O[C@H]2[C@H](CO)O1)NCCc1ccccc1,-3[16.7 µM]
C[C@@H]1CN([C@@H](C)CO)C(=O)c2cc(NC(=O)CCC(F)(F)F)ccc2O[C@@H](C)CCCCO[C@@H]1CN(C)Cc1ccccc1,-11[16.7 µM]
CC(C)(C)[S@](=O)N1Cc2cc(C(=O)N3CCCCC3)nc(-c3cccc(-c4ccccc4F)c3)c2[C@@H]1CCO,10[16.7 µM]
C[C@H](NC(=O)C[C@H]1C[C@H]2c3cc(NC(=O)C4CCOCC4)ccc3O[C@H]2[C@H](CO)O1)c1ccccc1,1[16.7 µM]
CCCc1nc2c(C)cc(Br)cn2c1Cc1ccccc1OC,-33
CN1C(=O)c2cc(NC(=O)Cc3cccs3)ccc2OC[C@H]2O[C@H](CC(=O)N[C@@H]3CCN(Cc4ccccc4)C3)CC[C@H]21,-24[16.7 µM]
COc1ccc2nc(NN=Cc3cccc(C)n3)cc(C)c2c1,-254
COc1cccc(S(=O)(=O)N2CCC3(CC2)CN[C@@H](CO)c2c3c3ccc(OC)cc3n2C)c1,-13[16.7 µM]
Cc1ccc(NC(=O)OC[C@@H]2CSCCS(=O)(=O)N2)cc1,-3
O=C(C[C@@H]1C[C@H]2c3cc(NC(=O)C4CCC4)ccc3O[C@H]2[C@@H](CO)O1)NC1CCCC1,24[16.7 µM]
C[C@H]1CN([C@@H](C)CO)C(=O)c2cc(NC(=O)Cn3cnnn3)ccc2O[C@@H]1CN(C)S(=O)(=O)c1ccc(Cl)cc1,-2[16.7 µM]
COc1ccc(CN2C[C@H](O)COC[C@H]3O[C@@H](CC(=O)NCCN4CCCC4)CC[C@@H]32)cc1,1[16.7 µM]
O=C(C[C@H]1C[C@@H]2c3cc(NC(=O)C4CCC4)ccc3O[C@@H]2[C@H](CO)O1)NC1CCCC1,-11[16.7 µM]
CCC(=O)Nc1ccc2c(c1)C(=O)N(C)C[C@@H](OC)[C@@H](C)CN(C(=O)CC)[C@@H](C)CO2,-1[16.7 µM]
O=C(N[C@H](C(=O)N1CCC[C@H]1C(=O)NC1CCCC1)c1ccccc1)c1ccc(Cl)cc1Cl,-23

# Next section.
SMILES,Env fusion inh
C[C@H]1CN([C@@H](C)CO)C(=O)c2cccc(N(C)C)c2O[C@H]1CN(C)S(=O)(=O)c1cn(C)cn1,-6[16.7 µM]
O=C1[C@@H](Cc2ccccc2)CCn2cc(nn2)COCC2CCCN12 (stereo partly drawn),-13[16.7 µM]
C[C@@H]1CCCCO[C@@H](CN(C)C(=O)Nc2cccc3ccccc23)[C@@H](C)CN([C@@H](C)CO)C(=O)c2cc(N(C)C)ccc2O1,-29[16.7 µM]
C[C@H]1CCCCO[C@@H](CN(C)C)[C@@H](C)CN([C@@H](C)CO)C(=O)c2cc(NS(=O)(=O)c3cn(C)cn3)ccc2O1,27[16.7 µM]
C[C@@H]1CN([C@@H](C)CO)C(=O)Cc2cc(NC(=O)C3CC3)ccc2O[C@H]1CN(C)Cc1ccc(Cl)c(Cl)c1,11[16.7 µM]
COc1ccc(CCN2CCC(CN3C(=S)NC[C@@H]3Cc3ccccc3)CC2)cc1OC,19
CCCN(C)C[C@H]1OCCCC[C@H](C)Oc2ccc(NC(=O)CCCN(C)C)cc2C(=O)N([C@H](C)CO)C[C@@H]1C,17[16.7 µM]
CO[C@@H]1CN(C)C(=O)c2cc(NC(=O)Nc3cc(F)ccc3F)ccc2OC[C@H](C)NC[C@H]1C,-4[16.7 µM]
C[C@H]1CN([C@@H](C)CO)C(=O)Cc2cc(NC(=O)c3ccncc3)ccc2O[C@@H]1CN(C)S(C)(=O)=O,16[16.7 µM]
CC(C)NC(=O)Nc1ccc2c(c1)C(=O)N([C@@H](C)CO)C[C@H](C)[C@@H](CN(C)C(=O)Nc1ccccc1)OCCCC[C@@H](C)O2,-24[16.7 µM]
CCCC(=O)Nc1ccc2c(c1)OC[C@H](C)N(C(=O)c1cccnc1)C[C@@H](C)[C@@H](OC)CN(C)C2=O,-1[16.7 µM]
C[C@H](CO)N1C[C@H](C)[C@@H](CN(C)Cc2ccc(F)cc2)OCc2ccccc2-c2ccccc2C1=O,35[16.7 µM]
C[C@H](NC(=O)C[C@H]1C[C@@H]2c3cc(NC(=O)c4cccnc4)ccc3O[C@@H]2[C@@H](CO)O1)c1ccccc1,10[16.7 µM]
Cc1noc(C)c1S(=O)(=O)N(C)C[C@@H]1Oc2ccc(NC(=O)Nc3ccccc3)cc2CC(=O)N([C@H](C)CO)C[C@@H]1C,-18[16.7 µM]
C[C@H](CO)N1C[C@H](C)[C@@H](CN(C)C(=O)Cc2ccncc2)Oc2ncc(C#C[C@@H](C)O)cc2C1=O,3[16.7 µM]
C[C@H](NC(=O)N(C)C[C@@H]1OCc2ccccc2-c2c(n(C)c3ccccc23)C(=O)N([C@@H](C)CO)C[C@@H]1C)c1ccccc1,48[16.7 µM]
CN1CCCCC(NC(=O)c2ccc(Cl)cc2Cl)C1=O (stereo not drawn),9
CNC[C@H]1OCCCC[C@@H](C)Oc2ccc(NC(=O)Nc3c(C)noc3C)cc2C(=O)N([C@H](C)CO)C[C@@H]1C,-11[16.7 µM]
CCCN1C[C@@H](C)[C@@H](OC)CN(C)C(=O)c2ccc(NC(=O)Nc3cccc(OC)c3)cc2OC[C@@H]1C,6[16.7 µM]
CCCNC(=O)Nc1ccc2c(c1)C(=O)N(C)C[C@H](OC)[C@@H](C)CN(Cc1ccncc1)[C@@H](C)CO2,0[16.7 µM]
C[C@@H]1ON(C)[C@H]2C[C@H]3c4[nH]c5cccc(Br)c5c4CCN3C(=O)[C@@H]12,15
O=C(C[C@H]1CC[C@H](NC(=O)Nc2ccc(C(F)(F)F)cc2)[C@H](CO)O1)NCc1cc(F)cc(F)c1,12[16.7 µM]
COc1ccccc1NC(=O)N1C[C@@H](C)[C@H](OC)CN(C)C(=O)c2cc(NC(=O)c3cc(C)on3)ccc2OC[C@H]1C,7[16.7 µM]
O=C(C[C@H]1CC[C@@H]2[C@H](COC[C@H](O)CN2Cc2ccc(Oc3ccccc3)cc2)O1)N1CCN(c2ccccc2)CC1,19[16.7 µM]
C[C@@H]1CN([C@H](C)CO)C(=O)c2cc(-c3ccc(F)cc3)cnc2O[C@@H]1CN(C)C(=O)c1ccncc1,15[16.7 µM]
O=C(NCC1CCN(C(=O)C(=O)c2cc3ccccc3o2)CC1)c1cc(C(F)(F)F)cc(C(F)(F)F)c1,2
CO[C@@H]1CN(C)C(=O)c2ccc(NC(=O)C3CCOCC3)cc2OC[C@H](C)N(Cc2nccs2)C[C@@H]1C,5[16.7 µM]
C[C@@H]1CCCCO[C@H](CN(C)S(C)(=O)=O)[C@@H](C)CN([C@@H](C)CO)C(=O)c2cc(NC(=O)CCC(F)(F)F)ccc2O1,11[16.7 µM]

# Some of the entries above, reformatted.
molecule | Env fusion inh
C[C@H](CO)N1C[C@H](C)[C@@H](CN(C)C(=O)Cc2ccncc2)Oc2ncc(C#C[C@@H](C)O)cc2C1=O | 3[16.7 µM]
C[C@H](NC(=O)N(C)C[C@@H]1OCc2ccccc2-c2c(n(C)c3ccccc23)C(=O)N([C@@H](C)CO)C[C@@H]1C)c1ccccc1 | 48[16.7 µM]
CN1CCCCC(NC(=O)c2ccc(Cl)cc2Cl)C1=O (stereo not drawn) | 9
CNC[C@H]1OCCCC[C@@H](C)Oc2ccc(NC(=O)Nc3c(C)noc3C)cc2C(=O)N([C@H](C)CO)C[C@@H]1C | -11[16.7 µM]
CCCN1C[C@@H](C)[C@@H](OC)CN(C)C(=O)c2ccc(NC(=O)Nc3cccc(OC)c3)cc2OC[C@@H]1C | 6[16.7 µM]
CCCNC(=O)Nc1ccc2c(c1)C(=O)N(C)C[C@H](OC)[C@@H](C)CN(Cc1ccncc1)[C@@H](C)CO2 | 0[16.7 µM]
C[C@@H]1ON(C)[C@H]2C[C@H]3c4[nH]c5cccc(Br)c5c4CCN3C(=O)[C@@H]12 | 15
O=C(C[C@H]1CC[C@H](NC(=O)Nc2ccc(C(F)(F)F)cc2)[C@H](CO)O1)NCc1cc(F)cc(F)c1 | 12[16.7 µM]
COc1ccccc1NC(=O)N1C[C@@H](C)[C@H](OC)CN(C)C(=O)c2cc(NC(=O)c3cc(C)on3)ccc2OC[C@H]1C | 7[16.7 µM]
O=C(C[C@H]1CC[C@@H]2[C@H](COC[C@H](O)CN2Cc2ccc(Oc3ccccc3)cc2)O1)N1CCN(c2ccccc2)CC1 | 19[16.7 µM]
C[C@@H]1CN([C@H](C)CO)C(=O)c2cc(-c3ccc(F)cc3)cnc2O[C@@H]1CN(C)C(=O)c1ccncc1 | 15[16.7 µM]

# Only part of the results is shown. The share of hits here may be higher or lower than overall.
